High-throughput results (PubChem)
UCH37 inh: human UCH37 deubiquitinating enzyme inhibition; Q9Y5K5; 0.33% of 330,000 active; inhibition, % (concentration not given with the values); purified proteasome/UCH37, Ub-AMC cleavage fluorescence;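 active = mean of two replicates above 20%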;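 also: 0% = compound-free wells with enzyme and 100% = wells lacking proteasome; stock transfer was 100 nL into about 20 µL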
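Material: Human UCH37 enzyme supplied as purified proteasome complex | Schedule: 30 min preincubation with enzyme, 25 min cleavage at room temperature | Detection: AMC fluorescence 355/460 nm | Measure: % inhibition of Ub-AMC cleavage fluorescence | Controls: Wells without proteasome as full block, compound-free enzyme plus substrate as uninhibited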
FGF22 binding: shifts melting point of recombinant human FGF22 | Q9HCT0 | recombinant FGF22 thermal shift, SYPRO orange fluorescence; percent of sucrose octasulfate shift, DMSO zero | calls only at 9.99 µM | 1.5% of 340,000 active | AID 651658;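 active = melting point raised past a set limit in the mean and every replicate; three in four hits are not shown here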
Target sequence (Q9HCT0 whole entry, looked up): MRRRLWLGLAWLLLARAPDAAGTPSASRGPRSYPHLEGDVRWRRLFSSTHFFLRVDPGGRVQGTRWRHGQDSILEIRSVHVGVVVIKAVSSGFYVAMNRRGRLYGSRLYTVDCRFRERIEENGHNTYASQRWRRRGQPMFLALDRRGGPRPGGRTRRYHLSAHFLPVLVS
E coli growth: inhibitors of Escherichia coli growth. OD600, 23 h; stronger effect = lower value. OD600 absorbance (no concentration beside the values). 0.21% of 330,000 active;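 active = OD600 absorbance below the run mean of sample wells minus 3.6 SD, in any replicate, cut at about 0.56 in these data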;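 also: stock transfer was 300 nL into about 60 µL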
ALR inh: human ALR oxidase inhibition via reduced H2O2. P55789. purified ALR, DTT oxidation, H2O2 HRP-luminol luminescence. inhibition, % (test concentration not listed). 3.8% of 290,000 active. AID 485317;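 active = mean and each replicate at 75% or more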;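 also: stock transfer was 7.5 nL into about 7.5 µL; 0% = neutral wells and 100% = wells with inactivated enzyme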
B2AR ag: human beta-2 adrenergic receptor agonism by FAP | response, % (concentration not given with the values) | Am2.2-beta2AR cells, FAP receptor internalization, flow cytometry; reference of the scale not given here | 0.43% of 340,000 active | P07550 | AID 504454;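 active = response above a set limit, near 3 SD of response in nonfluorescent compounds, cut at about 42% in these data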;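 also: stock transfer was 100 nL into about 11 µL; a reference agonist was the positive control; negative values mostly stem from fluorescent compounds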
Target sequence (P07550 whole entry, looked up): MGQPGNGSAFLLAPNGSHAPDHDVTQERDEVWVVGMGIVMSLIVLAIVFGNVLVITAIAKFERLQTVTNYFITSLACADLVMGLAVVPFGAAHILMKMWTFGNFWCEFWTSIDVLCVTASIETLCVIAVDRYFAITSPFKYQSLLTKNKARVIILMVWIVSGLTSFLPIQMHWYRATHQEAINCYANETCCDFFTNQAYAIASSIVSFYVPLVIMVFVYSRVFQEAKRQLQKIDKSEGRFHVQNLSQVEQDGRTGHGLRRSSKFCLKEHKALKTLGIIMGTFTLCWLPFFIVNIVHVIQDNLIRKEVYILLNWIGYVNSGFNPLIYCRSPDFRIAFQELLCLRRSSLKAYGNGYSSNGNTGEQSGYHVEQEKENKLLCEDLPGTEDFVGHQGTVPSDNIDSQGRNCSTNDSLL
rRNA inh HTS: selective bacterial rRNA inhibition in E. coli; E. coli WT GFP vs humanized-ribosome RFP mutants, fluorescence, 24 h; stronger effect = lower value; DMSO median 0, no signal -100; GFP signal change (wild-type ribosome), % (no concentration beside the values); 1.6% of 350,000 active; AID 720706;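 active = significant combined selectivity score with lowered wild-type GFP, culture density cut under 30%, mutant RFP and density less affected; inactive = any of these conditions unmet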; also: one replicate is shown; some compounds called inactive have numbers as strong as hits
HNF4A DNA FP: change in binding of human HNF4 alpha to DNA; activity change, % at 10 µM; 0.3% of 360,000 active; HNF4a-FITC DNA binding, fluorescence polarization, 1 h; in the data active = activity change above about 30%, passing the limit was not always enough;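 also: controls were the assay level and a saturating level of protein; the project sought stronger binding though the title names inhibitors; some compounds called inactive have numbers as strong as hits; positive values seem to mean higher polarization but the record does not say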
Target sequence (P41235 whole entry, looked up): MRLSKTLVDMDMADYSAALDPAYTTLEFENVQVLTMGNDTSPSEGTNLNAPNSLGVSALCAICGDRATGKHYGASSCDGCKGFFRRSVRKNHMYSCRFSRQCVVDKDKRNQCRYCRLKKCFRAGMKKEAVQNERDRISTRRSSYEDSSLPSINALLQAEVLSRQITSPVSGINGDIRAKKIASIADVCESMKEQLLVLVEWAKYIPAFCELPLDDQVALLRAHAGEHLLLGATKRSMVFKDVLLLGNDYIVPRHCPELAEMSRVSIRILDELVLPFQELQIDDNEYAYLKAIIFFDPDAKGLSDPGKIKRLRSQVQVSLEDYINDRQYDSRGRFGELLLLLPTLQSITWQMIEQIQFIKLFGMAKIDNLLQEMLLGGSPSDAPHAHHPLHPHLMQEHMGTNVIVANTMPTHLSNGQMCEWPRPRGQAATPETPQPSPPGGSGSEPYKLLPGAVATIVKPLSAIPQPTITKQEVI
rRNA inh HTS OD600: also measured in rRNA inh HTS; calls as there; OD600 change, %; measured here: OD600 growth;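 optical density of the mix in the first replicate; 0 = DMSO median and -100 = no signal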
rRNA inh HTS RFP: further read-out of rRNA inh HTS, marked with its call; RFP signal change, %; measured here: RFP humanized mutant strains;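 first replicate; 0 = DMSO median and -100 = no signal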
Starred values were filed as active, the others as inactive; i = inactive; / = no result given. The list is partial. The share of hits here may be higher or lower than overall.

1	COc1ccc(Br)cc1/C=C(\C(=O)O)c1ccc(S(=O)(=O)N2CCCC2)s1
2	COCCNC(=O)NC(=O)CN1CCCc2ccccc21
3	COc1ccccc1NS(=O)(=O)c1cccc(NS(=O)(=O)c2cc(C(=O)O)ccc2OC)c1
4	Cc1cc(=O)oc2cc(OCC(=O)NCc3ccccn3)ccc12
5	O=C(Nc1ccccn1)c1nc(-c2ccccc2)n(-c2ccccc2)n1
6	CCN(C(=O)COC(=O)Cc1coc2cc(C)ccc12)c1c(N)n(Cc2ccccc2)c(=O)[nH]c1=O

assay / compound	1	2	3	4	5	6
HNF4A DNA FP	-9.3	-23	-1.2	1.7	3.6	4.6
UCH37 inh	2.8	3.1	-0.1	-19	2.5	1.1
ALR inh	6	29	/	1	-3	1
FGF22 binding	i	i	i	/	i	i
rRNA inh HTS OD600	-54	8	/	/	0	13
rRNA inh HTS RFP	-12	-2.2	/	/	-0.8	2.9
E coli growth	0.72	0.69	0.71	0.75	0.7	0.66
rRNA inh HTS	-41	12	/	/	-3	14
B2AR ag	5	9	-2	4	3	-11

7	C[N+]1(C)CCC(=C2c3ccccc3CC(=O)c3sccc32)CC1
8	O=C(NCC(c1ccco1)N1CCN(c2ccccc2F)CC1)C(=O)NC1CCCCC1 (stereo unspecified)
9	COc1ccc(N2C(=O)CC(Cc3ccccc3)C2=O)cc1 (stereo unspecified)
10	Cc1c(NC(=O)c2cc3c(s2)-c2ccccc2OC3)cccc1[N+](=O)[O-]
11	COc1cccc(CN2CCN(C3CSCCSC3)CC2CCO)c1 (stereo unspecified)
12	CCN(C(=O)c1cc2cccc(OC)c2oc1=O)C1CCCCC1

assay / compound	7	8	9	10	11	12
HNF4A DNA FP	-0.8	2.2	-1.1	-1.8	1.1	2.3
UCH37 inh	75*	4.7	1.7	-16	2.7	2.5
ALR inh	2	0	-13	-15	/	-4
FGF22 binding	/	i	/	/	i	/
rRNA inh HTS OD600	/	7	/	/	3	/
rRNA inh HTS RFP	/	-1.3	/	/	-5.1	/
E coli growth	0.7	0.63	0.69	0.65	0.69	0.66
rRNA inh HTS	/	2	/	/	1	/
B2AR ag	-1	-5	-6	25	-8	4

A draw from above in order of molecular weight, rising:
2	COCCNC(=O)NC(=O)CN1CCCc2ccccc21
9	COc1ccc(N2C(=O)CC(Cc3ccccc3)C2=O)cc1 (stereo unspecified)
11	COc1cccc(CN2CCN(C3CSCCSC3)CC2CCO)c1 (stereo unspecified)
8	O=C(NCC(c1ccco1)N1CCN(c2ccccc2F)CC1)C(=O)NC1CCCCC1 (stereo unspecified)

assay / compound	2	9	11	8
HNF4A DNA FP	-23	-1.1	1.1	2.2
UCH37 inh	3.1	1.7	2.7	4.7
ALR inh	29	-13	/	0
FGF22 binding	i	/	i	i
rRNA inh HTS OD600	8	/	3	7
rRNA inh HTS RFP	-2.2	/	-5.1	-1.3
E coli growth	0.69	0.69	0.69	0.63
rRNA inh HTS	12	/	1	2
B2AR ag	9	-6	-8	-5

Continuation:
13	Cc1cc(C)c2c(CC(=O)NCc3ccco3)coc2c1
14	COC(=O)[C@H](Cc1ccccc1)N(Cc1ccccc1)S(=O)(=O)N(Cc1ccccc1)[C@@H](Cc1ccccc1)C(=O)OC
15	CCOc1ccc(C2C(C#N)=C(N)Oc3cc(C)n(Cc4ccco4)c(=O)c32)cc1OC (stereo unspecified)
16	O=C(COC(=O)CCSc1ccccc1)Nc1ccccc1Br
17	C/C(=N\NC(=O)CCC(=O)Nc1ccc(C)c(C)c1)c1cccs1
18	COC(=O)c1ccc2c(=O)n(CCN3CCOCC3)c(SCC(=O)Nc3cccc(OC)c3)nc2c1

assay / compound	13	14	15	16	17	18
HNF4A DNA FP	-0.9	1.6	2.8	0.4	-0.2	1.9
UCH37 inh	6.3	4.2	2.8	1.8	/	3.6
ALR inh	1	4	-21	-10	-2	99*
FGF22 binding	/	i	/	i	i	i
rRNA inh HTS OD600	/	16	-9	-10	8	1
rRNA inh HTS RFP	/	-7.5	8.2	-3.2	-3.2	-1.9
E coli growth	0.73	/	0.74	0.66	/	0.65
rRNA inh HTS	/	2	-1	2	-5	-1
B2AR ag	0	17	-3	6	-7	-1

19	CCc1nc2ccc(C(=O)N(CC)CC(=O)Nc3c(F)cccc3F)cc2nc1CC
20	Cc1cc2c(cc1C)CSC(c1ccc(O)cc1)SC2
21	NNc1cccc(C=Cc2ccccc2)cc1=O
22	CCOc1ccc(-c2noc(-c3cccnc3)n2)cc1OC
23	O=C(NC1CCN(C(=O)NC2CCCCC2)CC1)c1ccco1
24	O=C(CCN1C(=O)C2C3CCC(C3)C2C1=O)OCC(=O)c1cccc([N+](=O)[O-])c1 (stereo unspecified)

assay / compound	19	20	21	22	23	24
HNF4A DNA FP	-2.9	2.5	37*	-1.2	1.0	-0.9
UCH37 inh	2.9	1.8	/	/	-1.1	-1.9
ALR inh	/	/	/	-4	-12	/
FGF22 binding	i	i	i	/	/	i
rRNA inh HTS OD600	4	-6	7	/	/	3
rRNA inh HTS RFP	3.9	-5.7	-2.3	/	/	2.4
E coli growth	0.67	0.71	/	/	0.68	0.66
rRNA inh HTS	-12	-6	-5	/	/	6
B2AR ag	3	-4	-64	-3	0	-9

25	Cc1cccc(NC(=O)c2sc3nc4c(c(-c5cccs5)c3c2N)CN(C)CC4)c1
26	CC(C)(C)NC(=O)C[C@H]1C[C@H](C(=O)N2CCOCC2)[C@@]2(CCC3CCCC3)c3[nH]c4ccc(Cl)cc4c3CCN2C1=O
27	Cc1ccc(C)c(S(=O)(=O)NCC(=O)OCC(=O)Nc2sccc2C(N)=O)c1
28	CC(Oc1ccc(Cl)cc1)C(=O)N/N=C/c1ccsc1 (stereo unspecified)
29	COc1ccc(OC)c(CN2CCN(C(=O)c3cc(S(=O)(=O)Nc4ccccc4OC)ccc3C)CC2)c1
30	CC(C)(C)c1ccc(C(=O)Nc2cccc3ncccc23)cc1

assay / compound	25	26	27	28	29	30
HNF4A DNA FP	18	-2.6	-0.3	1.0	5.3	-50
UCH37 inh	-8.6	3.0	-1.2	/	4.8	/
ALR inh	/	/	/	32	-4	-5
FGF22 binding	/	/	i	/	i	i
rRNA inh HTS OD600	/	/	-2	/	-14	-22
rRNA inh HTS RFP	/	/	-0.6	/	2.1	0.5
E coli growth	0.7	0.7	0.65	/	0.71	/
rRNA inh HTS	/	/	0	/	-5	-2
B2AR ag	-13	7	13	-5	20	8

31	Cc1c(OC(C)C(=O)NCc2cccnc2)ccc2c3c(c(=O)oc12)CCCC3 (stereo unspecified)
32	Cc1ccc(S(=O)(=O)N(CC(=O)N2CCC(C)CC2)c2cccc(C)c2)cc1
33	Cc1cc(C)c(C(=O)NC2CC(C)(C)Cc3c2cnn3-c2cccc(F)c2)[nH]1 (stereo unspecified)
34	CCOc1ccc(C(=O)N/N=C/c2cc(Cl)ccc2[N+](=O)[O-])cc1
35	CCc1ccc(C(=O)C(C)OC(=O)Cn2cnc3c2c(=O)n(C)c(=O)n3C)cc1 (stereo unspecified)
36	CCNC(=O)C1CCCN(C(=O)c2ccc(C(F)(F)F)cc2)CC1 (stereo unspecified)

assay / compound	31	32	33	34	35	36
HNF4A DNA FP	2.4	-7.8	5.4	2.5	-0.2	-1.0
UCH37 inh	/	3.7	2.4	/	1.5	/
ALR inh	8	-14	/	-1	-1	/
FGF22 binding	i	/	i	/	i	i
rRNA inh HTS OD600	-30	/	-9	/	-4	13
rRNA inh HTS RFP	2.8	/	3.0	/	-1.0	-2.7
E coli growth	/	0.7	0.7	/	0.62	/
rRNA inh HTS	-10	/	-2	/	2	5
B2AR ag	1	3	0	16	-11	/

Grouped by structure: the compounds so far with an aryl thioether with sulfur outside any ring (2)
16	O=C(COC(=O)CCSc1ccccc1)Nc1ccccc1Br
18	COC(=O)c1ccc2c(=O)n(CCN3CCOCC3)c(SCC(=O)Nc3cccc(OC)c3)nc2c1

assay / compound	16	18
HNF4A DNA FP	0.4	1.9
UCH37 inh	1.8	3.6
ALR inh	-10	99*
FGF22 binding	i	i
rRNA inh HTS OD600	-10	1
rRNA inh HTS RFP	-3.2	-1.9
E coli growth	0.66	0.65
rRNA inh HTS	2	-1
B2AR ag	6	-1

Later entries:
37	CCOC(=O)C1=C(C)Nc2ccccc2N/C1=N\S(=O)(=O)c1ccccc1
38	Cc1ccc2[nH]c(=O)c(C(c3nnnn3Cc3ccccc3)N3CCc4ccccc43)cc2c1 (stereo unspecified)
39	CCOc1nc(Oc2cccc(C(=O)O)c2)nc(Oc2cccc(C(=O)O)c2)n1
40	S=c1[nH]nc(-c2ccc3ccccc3n2)n1Cc1ccccc1
41	O=C(N/N=C/c1cn(Cc2ccccc2)c2ccccc12)c1ccncc1
42	Cc1ccc2nc(C3CCCCC3)c(Cc3cccc(Cl)c3)n2c1

assay / compound	37	38	39	40	41	42
HNF4A DNA FP	3.2	0.5	-0.4	3.0	-3.2	2.8
UCH37 inh	3.2	0.0	2.7	0.7	/	/
ALR inh	/	-122	97*	-1	0	/
FGF22 binding	i	/	/	/	i	i
rRNA inh HTS OD600	-7	/	/	/	-42	-78
rRNA inh HTS RFP	2.6	/	/	/	-3.6	-16
E coli growth	0.68	0.73	0.71	0.66	/	/
rRNA inh HTS	-3	/	/	/	-31	-59
B2AR ag	11	1	1	-3	-1	/

43	O=C(CSc1nnc(C2COc3ccccc3O2)o1)N1CCN(c2ccccc2)CC1 (stereo unspecified)
44	O=C(NCc1ccccc1)c1ccc(OC2CSC2)cc1
45	Cc1ccc(S(=O)(=O)CCC(=O)OCc2ccccc2F)cc1
46	O=C(Nc1ccccc1Cl)c1cc(C2CCCN(C(=O)CCc3ccccc3)C2)on1 (stereo unspecified)
47	CS(=O)(=O)N1CCC(Oc2ccccc2C(=O)N2CCC[C@H]2CO)CC1
48	CCN1CCN(c2ccc(S(=O)(=O)N3CCOCC3)cc2NC(=O)CCSC)CC1

assay / compound	43	44	45	46	47	48
HNF4A DNA FP	0.7	-1.3	-5.2	0.5	1.6	0.7
UCH37 inh	1.4	0.4	3.1	/	0.2	4.6
ALR inh	0	-5	/	/	1	/
FGF22 binding	i	/	i	i	i	i
rRNA inh HTS OD600	7	/	-19	-2	20	13
rRNA inh HTS RFP	9.1	/	1.9	0.9	4.9	-2.8
E coli growth	0.71	0.71	0.7	/	0.69	0.66
rRNA inh HTS	8	/	-14	-1	11	10
B2AR ag	-10	14	3	/	-1	5

49	COc1cccc(CC(=O)Nc2ccc(F)c(S(=O)(=O)N3CCOCC3)c2)c1
50	O=C(O)c1ccccc1N(Cc1ccccc1)C(=O)CO/N=C/c1ccccc1
51	O=C(O)c1ccc(O)c(N2C(=O)Nc3ccccc3N2O)c1
52	Nc1cnn(Cc2ccccc2F)c1
53	COc1ccc(/C=N/NC(=O)CN2CCN(Cc3ccccc3)CC2)cc1Br
54	Cc1ccc(C)c(N(CC(=O)NCc2ccco2)C(=O)CCC(=O)Nc2ccccn2)c1

assay / compound	49	50	51	52	53	54
HNF4A DNA FP	1.0	3.3	-1.4	-0.5	7.2	0.8
UCH37 inh	/	/	1.3	6.4	/	/
ALR inh	/	-1	4	-53	/	/
FGF22 binding	i	i	/	i	i	/
rRNA inh HTS OD600	-15	-8	/	-5	-24	/
rRNA inh HTS RFP	2.1	-1.1	/	5.2	0.6	/
E coli growth	/	/	0.65	0.61	/	0.72
rRNA inh HTS	-15	-9	/	-1	-13	/
B2AR ag	6	-4	6	0	2	0
